StopGo reporter: High Throughput Screening for Foot and Mouth Disease Virus Antivirals; human cells with a luciferase reporter of 2A StopGo recoding; control for the full effect not named in the record; Potency, µM (doses to about 57.9 µM), for the others: top-dose signal change, negative = less light; 410,000 tested, 1.2% active; active = well fitted falling curve with a large enough effect; inconclusive = small, poorly fitted or top-dose-only effect; inactive = no such curve, though single readings can be large or run the other way; tested in HEK293T cells; further: nearly all actives have a fitted effect of over 45% in size; luciferase light after 4 h
RE007 growth inh: qHTS Assay for Inhibitors of the HIV-1 protein Vpr; 360,000 tested, 0.21% active; S. pombe RE007 Vpr strain, BacTiter-Glo ATP luminescence, 24 h; control for the full effect not named in the record; Potency, µM (doses to about 92.2 µM), without a hit: at the highest dose activity change, negative = less growth; active = well fitted falling curve with a large enough effect; inconclusive = small, poorly fitted or top-dose-only effect; inactive = no such curve, though single readings can be large or run the other way;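 further: nearly all actives have a fitted effect of over 50% in size; the assay follows cell death caused by Vpr and the record does not say whether a fall means rescue or toxicity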
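Fission yeast strain RE007, carrying one chromosomally integrated HIV-1 vpr copy, was seeded at OD 0.01 in PMG+AL medium with 23 nL pinned compound. After 24 h at 30 °C and 99% humidity, viability was read by BacTiter-Glo luminescence.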
* hit, by the source's call; ? = inconclusive; [ ] = dose if it differs, or a comment. On the % scale 0 is the no-effect control and ±100 the full control effect; potency means the concentration at half of the fitted maximal effect. The list is partial; count on the stated rates, not on these rows.

SMILES | StopGo reporter | RE007 growth inh
CCOC(=O)C1(C)CCCN1C(=O)c1sccc1C (stereo not drawn) | -3% | 3%[18.4 µM]
Cn1c(=O)c2c(-c3ccccc3)n(-c3cccc(O)c3)cc2n(C)c1=O | ? | 9%
COC(=O)C[C@@H]1C=C[C@@H](NC(C)=O)[C@@H](CO)O1 | -8% | 10%
CC(C)=CCc1c(O)cc(O)c2c(=O)c3c(CC=C(C)C)c(O)ccc3oc12 | ? | 6%
CC(NC(=O)c1c(N)[nH]c(C(=O)c2ccccc2)c1-c1ccccc1Br)c1cccc2ccccc12 (stereo not drawn) | -10% | 2%
COc1ccc2c(c1)C(CC(C)=O)N(c1ccc(-c3cccs3)cc1)C(c1ccsc1)=C2 (stereo not drawn) | -10% | -2%
CN(C)C(=O)c1cccc(-c2cnc3cccnn23)c1 | -1% | -4%
COc1cc(CN2C[C@@H](CO)O[C@@H](n3cnc4c(NCc5ccc(F)cc5)ncnc43)C2)cc(OC)c1OC | -26% | 12%
C#CCN(C[C@@H](CC(C)C)NC(=O)OC(C)(C)C)S(=O)(=O)c1ccc(Br)cc1F | -44% | -21%
CCc1ccc(N2CC(C(=O)N3CCN(c4ccc([N+](=O)[O-])cc4)CC3)CC2=O)cc1 (stereo not drawn) | 29% | 7%
OCCNc1ncnc2c1ncn2[C@H]1CN(Cc2ccco2)C[C@@H](CO)O1 | -7% | 20%[18.4 µM]
COCCCN1C(=O)C(CC(=O)NC2CCCC2)CC(C(=O)N(C(C)C)C(C)C)=C1C (stereo not drawn) | -15% | 2%
O=C(c1[nH]c(C(F)(F)F)nc1-c1ccccc1)N1CCN(c2ncccc2C(F)(F)F)CC1 | -7% | 7%
CCCC/C=C/c1cccc2nncn12 | -24% | 16%
CC(C#N)(Cc1ccccc1)Nc1ccccc1 (stereo not drawn) | -7% | 3%
O=S(=O)(NCC[C@@H]1CC[C@H](NS(=O)(=O)c2cccc(F)c2)[C@@H](CO)O1)c1cccc(F)c1 | 1% | 3%
CC(C(=O)O)c1ccc(C(=O)c2ccccc2)s1 (stereo not drawn) | 51%[activator] | -30%
COc1cc(CN2C[C@@H](CO)O[C@@H](n3cnc4c(N5CCOCC5)ncnc43)C2)cc(OC)c1OC | -25% | 6%
COc1ccc(Cc2c(-c3ccccc3)nc3ccc(Cl)cn23)c(C)c1 | 0% | 11%
O=C1OC(C(Cl)(Cl)Cl)Nc2ccccc21 (stereo not drawn) | -18% | 10%
CN1CCN(C(=O)C[C@@H]2C=C[C@H](NS(=O)(=O)c3cccc(F)c3)[C@@H](CO)O2)CC1 | -12% | 6%
O=C(c1cc(C2CCCCN2S(=O)(=O)Cc2ccccc2)on1)N1CCOCC1 (stereo not drawn) | -13% | 12%
COc1ccc(S(=O)(=O)N2CCOC2CNC(=O)C(=O)NCc2ccc3c(c2)OCO3)cc1C (stereo not drawn) | ? | -1%
Cc1cc(C)cc(-n2c3ccc(NC(=S)NC4CCCCC4)cc3c(=O)n2C)c1 | 13% | 22%
CCN(CC(=O)Nc1ccccc1C(F)(F)F)C(=O)c1ccc(-n2nc(C)c(CCC(=O)OC)c2C)cc1 | ? | 1%
COc1ccccc1OCc1cc(C(=O)N(C)CCC2CCOCC2)no1 | 60%[activator] | 8%
NC(=O)C1CCN(c2ccc3c(c2)S(=O)(=O)c2ccccc2C3=O)CC1 | 23% | 2%
COCCNC(=O)C1CCCN(C(=O)c2oc3ccccc3c2C)CC1 (stereo not drawn) | -5% | 10%[18.4 µM]
Cc1ccccc1-c1csc(C(O)c2ccccc2)n1 (stereo not drawn) | 52%[activator] | 1%[18.4 µM]
COc1ccc(NC(=O)c2sc(=O)n(Cc3cccc(C(F)(F)F)c3)c2C)cc1OC | -5% | -17%[18.4 µM]
CCNC(=O)C1(C)CCCN1C(=O)c1ccc(N(C)C)cc1 (stereo not drawn) | -21% | -4%
CCOC(=O)[C@]12CCCC=C1N(CCC1=CCCCC1)C(=O)[C@H](CC(=O)NCCCOC)C2 | 3% | -4%
Cc1ccc(-c2nc3c(C)cc(Br)cn3c2Cc2ccccc2)cc1 | -10% | 3%
CCCCN1C(=O)C(CC(=O)NC(c2ccccc2)c2ccccc2)CC(C(=O)N(C)C)=C1C (stereo not drawn) | 0% | 7%
COc1ccc([C@H]2CN(c3ccc(OC)cc3)C(=O)[C@@H]2CC(=O)Nc2ccc(Br)cc2)cc1 | -3% | 1%
CN1C(=O)[C@@](O)(c2cn(C)c3ccccc23)c2cc(Br)ccc21 | -15% | 0%
O=C(/C=C/c1cccc([N+](=O)[O-])c1)c1ccc([N+](=O)[O-])o1 | ? | 2%
CCCCN1CCC(CN2C(=S)NC[C@@H]2CC(C)C)CC1 | 0% | -19%
CC1(C(=O)NCc2cccc(Cl)c2)Cc2c(-c3ccc(C(N)=O)cc3)ccnc2O1 (stereo not drawn) | -2% | 15%[18.4 µM]
CNc1ncnc2c1ncn2[C@H]1CN(Cc2ccc(-c3ccccc3)cc2)C[C@@H](CO)O1 | ? | 2%
CCN(C(=O)COC(=O)c1c(NC(C)=O)sc(C)c1C)c1c(N)n(Cc2ccccc2)c(=O)[nH]c1=O | 0% | 15%
Cc1ccc2nc(-c3ccc(NC(=S)NCC(C)(C)CN(C)C)cc3)sc2c1 | -3% | -8%
CC(C)(C)OC(=O)N1CCN(Cc2ccc(F)c(B(O)O)c2)CC1 | -3% | 8%
O=C(Cc1ccccc1)N(c1ccccc1)c1ccccc1 | -24% | 9%
COc1ccc(C(=O)N2Cc3cnnn3-c3ccccc3C2C#N)cc1 (stereo not drawn) | 2% | 3%
COC(=O)[C@]12CCCCC=C1N(Cc1cccc3ccccc13)C(=O)[C@H](CC(=O)NCc1cccs1)C2 | -12% | 4%
O=C(NCc1ccc(Cl)c(Cl)c1)c1cc(C2CCCCN2C(=O)CCc2ccccc2)on1 (stereo not drawn) | -19% | -20%
O=C(Nc1ccc2c(c1)[C@@H]1C[C@@H](CC(=O)N3CCOCC3)O[C@@H](CO)[C@@H]1O2)NC1CCCC1 | -15% | 6%
COC(=O)[C@]12CCCCC=C1N(Cc1ccco1)C(=O)[C@H](CC(=O)NCCCN1CCCC1=O)C2 | -18% | -3%
Cc1ccc(NC(=O)CN(C)C(=O)COC(=O)COc2cc(C)cc(C)c2)cc1 | -21% | -6%

Reprinted from the part before: five entries, then new ones.
SMILES | StopGo reporter | RE007 growth inh
COC(=O)[C@]12CCCCC=C1N(Cc1cccc3ccccc13)C(=O)[C@H](CC(=O)NCc1cccs1)C2 | -12% | 4%
O=C(NCc1ccc(Cl)c(Cl)c1)c1cc(C2CCCCN2C(=O)CCc2ccccc2)on1 (stereo not drawn) | -19% | -20%
O=C(Nc1ccc2c(c1)[C@@H]1C[C@@H](CC(=O)N3CCOCC3)O[C@@H](CO)[C@@H]1O2)NC1CCCC1 | -15% | 6%
COC(=O)[C@]12CCCCC=C1N(Cc1ccco1)C(=O)[C@H](CC(=O)NCCCN1CCCC1=O)C2 | -18% | -3%
Cc1ccc(NC(=O)CN(C)C(=O)COC(=O)COc2cc(C)cc(C)c2)cc1 | -21% | -6%
O=C(NC(=S)Nc1cc(Cl)ccc1Cl)c1ccco1 | 22% | -20%
CCc1nc2ccc(C(=O)Nc3cccc(OCC(=O)N(C)C)c3)cn2c1N(CC)CCOC | -31% | ?
O=[N+]([O-])c1cccc(COc2ccccc2CN2CCCCC2)c1 | -10% | -14%
CCc1nc2c(OCC3CCCCC3)cccn2c1N(C)C(=O)c1ccccc1F | -24% | ?
O=C1CC2(CCCCCC2)Oc2ccc(Cl)cc21 | -10% | 11%
CC(=O)NC(=Cc1ccccc1)C(=O)N1CCCC1C(=O)O (stereo not drawn) | 0% | 0%
CC(O)(c1cccc(F)c1)c1nc(-c2cccc(F)c2)cs1 (stereo not drawn) | -24% | ?
O=C1Nc2ccccc2-n2nnnc2C1N1CCN(C(=O)C2CCCO2)CC1 (stereo not drawn) | -19% | 4%
Cc1cc(Br)cn2c(Cc3ccccc3C(F)(F)F)c(-c3ccccc3)nc12 | -18% | 6%
C#CCOCCOCCOCCNc1nc(N2CCN(C(=O)C([C@@H](C)CC)n3cc(C(N)COC(=O)C(F)(F)F)nn3)CC2)nc(N2CCN(C(=O)[C@H](Cc3cc4ccccc4[nH]3)n3cc(C(N)CO)nn3)CC2)n1 (stereo partly drawn) | -8% | 13%

Complete entries, looked up by structure. Values in the order: StopGo reporter, RE007 growth inh
Listed for O=C1Nc2ccccc2-n2nnnc2C1N1CCN(C(=O)C2CCCO2)CC1 (stereo not drawn) → -19%, 4%
Listed for CC(O)(c1cccc(F)c1)c1nc(-c2cccc(F)c2)cs1 (stereo not drawn) → -24%, ?
Listed for Cc1cc(Br)cn2c(Cc3ccccc3C(F)(F)F)c(-c3ccccc3)nc12 → -18%, 6%
Listed for CCc1nc2c(OCC3CCCCC3)cccn2c1N(C)C(=O)c1ccccc1F → -24%, ?
Listed for O=C1CC2(CCCCCC2)Oc2ccc(Cl)cc21 → -10%, 11%

Continuation.
SMILES | StopGo reporter | RE007 growth inh
CN(C)CCNc1ncnc2c1ncn2[C@H]1CN(Cc2ccc(F)cc2)C[C@@H](CO)O1 | 0% | 1%
CSc1ccc(CN2CCC2(C)C(=O)NCc2ccc3c(c2)OCO3)cc1 (stereo not drawn) | ? | -23%
CCOC1=C2[C@@H](CN(S(=O)(=O)c3ccc(C)cc3)[C@H]2c2ccc(CC)cc2)[C@H]2C(=O)N(C)C(=O)[C@H]2C1 | 16% | 2%
CCCCNC(=O)C1(C)CCN1C(=O)c1ccc2sccc2c1 (stereo not drawn) | -12% | -17%[18.4 µM]
Cc1ccc(C)c(NC(=O)COC(=O)c2ccc(S(=O)(=O)N3CCCC3)cc2)c1 | -7% | 9%
CCSCC(C)(C)n1[nH]c2ccccc2c1=O | -28% | -4%
O=C(NCc1ccco1)c1ccc(OC2CCN(Cc3ccccn3)CC2)cc1 | -3% | -5%
Cn1c(=O)c2cc(NC(=S)NC3CC3)ccc2n1Cc1cccc(C(F)(F)F)c1 | -18% | 0%
CN1CCN(c2ccc(CNC(=O)C3Cc4c(-c5cccc(F)c5)ccnc4O3)cc2)CC1 (stereo not drawn) | -13% | -22%[18.4 µM]
CC1(C(=O)NCc2ccccc2Br)CCN1C(=O)Cc1ccc(-c2ccccc2)cc1 (stereo not drawn) | 0% | 1%[18.4 µM]

Looked up above:
CCOC1=C2[C@@H](CN(S(=O)(=O)c3ccc(C)cc3)[C@H]2c2ccc(CC)cc2)[C@H]2C(=O)N(C)C(=O)[C@H]2C1 @ StopGo reporter: 16%
CC1(C(=O)NCc2ccccc2Br)CCN1C(=O)Cc1ccc(-c2ccccc2)cc1 (stereo not drawn) @ RE007 growth inh: 1%[18.4 µM]
Cc1ccc(C)c(NC(=O)COC(=O)c2ccc(S(=O)(=O)N3CCCC3)cc2)c1 @ StopGo reporter: -7%

New compounds follow
SMILES | StopGo reporter | RE007 growth inh
C=C(CCO)C1=CCN(S(=O)C(C)(C)C)[C@H]1CCO (stereo partly drawn) | -12% | 12%
CCNC(=O)C1(C)CCN(C(=O)c2ccc3c(c2)CCO3)C1 (stereo not drawn) | -8% | 5%
O=C(NCC1CCCCC1)c1csc([C@@H]2O[C@H](CO)[C@H](O)[C@H](O)[C@H]2O)n1 | -15% | 6%
O=C1[C@H](Cc2ccccc2)NCCCC[C@@H](c2ccc(Cl)cc2)N1Cc1ccc(Cl)cc1 | -7% | -3%
CCNC(=O)C1(C)CCCN(Cc2ccc(Oc3ccccc3)cc2)C1 (stereo not drawn) | -18% | -7%
COc1ccc(OC)c(CN2C(=O)CSCC2(C)C(=O)NCc2ccccc2)c1 (stereo not drawn) | -4% | 0%
CCCCCCn1c(=O)n2n(c1=O)C[C@]1(OC(=O)NC3CCCC3)CN(S(=O)(=O)c3ccc(C)cc3)C[C@]1(O)C2 | 0% | 3%
CCOC(=O)c1oc2ccccc2c1COC(=O)CNC(=O)c1ccccc1F | 12% | 2%
COc1ccc(Cl)cc1-c1cc(C(=O)NCc2cc(C(F)(F)F)cc(C(F)(F)F)c2)[nH]n1 | ? | 4%

Screening data deposited in PubChem by National Center for Advancing Translational Sciences (NCATS).
